TRPML1 ag: human mucolipin-1 channel agonism; Q9GZU1; activation, % (test concentration not listed); TRPML1-expressing cells, Ca2+ dye fluorescence, FDSS; host cell line not named in the record; reference of the full effect not given here; 410,000 compounds, 0.12% hits; in the data active = activation above about 50%; inconclusive = about 30% to 50%; inactive = below about 30%; note: 0% is about no effect; the text of the record puts the active cut at 80%
Target sequence (Q9GZU1 whole entry, looked up): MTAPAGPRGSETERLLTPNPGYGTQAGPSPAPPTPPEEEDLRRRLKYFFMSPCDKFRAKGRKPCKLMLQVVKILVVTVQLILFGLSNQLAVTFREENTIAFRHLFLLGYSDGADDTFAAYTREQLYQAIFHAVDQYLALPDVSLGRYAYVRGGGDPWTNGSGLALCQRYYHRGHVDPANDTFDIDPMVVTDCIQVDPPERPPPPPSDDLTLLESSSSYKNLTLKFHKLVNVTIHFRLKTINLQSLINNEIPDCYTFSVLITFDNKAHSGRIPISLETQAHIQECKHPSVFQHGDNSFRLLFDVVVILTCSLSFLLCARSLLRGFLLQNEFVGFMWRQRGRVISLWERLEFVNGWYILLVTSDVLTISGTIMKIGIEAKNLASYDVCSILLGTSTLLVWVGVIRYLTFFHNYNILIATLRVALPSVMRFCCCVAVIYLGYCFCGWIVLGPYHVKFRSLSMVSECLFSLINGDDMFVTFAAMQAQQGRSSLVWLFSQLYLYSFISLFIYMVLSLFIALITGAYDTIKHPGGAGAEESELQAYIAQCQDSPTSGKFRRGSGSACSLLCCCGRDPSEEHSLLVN
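Calcium fluorescence on an FDSS kinetic reader gave the read-out. Tet-induced TRPML1-DL cells were plated overnight, dye-loaded (Ca8 with quencher, 45-90 min, room temperature, dark), then read 110 s after compound addition, and again 110 s after 4uM final 54-4 (EC80).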
gsp antag: antagonizes gsp, the McCune-Albright syndrome mutation; AID 624288; 340,000 compounds, 0.4% hits; gsp-mutant cells, cAMP HTRF, 30 min; control for the full effect not named in the record; Potency, µM (series often up to 76.9 µM), for inactives: top-dose activity change, negative = inhibition, usual class: inhibitors; active = falling curve of any shape with a large fitted effect; inconclusive = falling curve, mostly with a smaller effect; inactive = flat or rising curve; cell line not stated here;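 note: intracellular cAMP measured with PDE inhibitor Ro 20-1724 present during compound exposure; potency is the fitted concentration of half-maximal effect; % is set by controls: 0 for no effect and ±100 for the full control effect; nearly all actives have a fitted effect of over 65% in size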
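Cells, 2000/well, grown 16–24 h in DMEM 10% FBS with 0.5 mg/ml G418, then compounds plus […] (300 uM addition stock), 30 min at 37C. cAMP read by HTRF (cAMP-d2 and anti-cAMP antibody-K in lysis buffer) after 30 min RT.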
TRPML1 blocker: blocks the human TRPML1 channel | Q9GZU1 | TRPML1-inducible cells, Ca2+ dye fluorescence, FDSS; hits give low values; inhibition of EC80 agonist-evoked calcium signal | activity change, negative = inhibition, % (concentration not given with the values) | 390,000 compounds, 0.02% hits | AID 624415; in the data active means activity change below about -50%; inconclusive means about -30% to -50%; inactive means above about -30%;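 note: stimulus is agonist 54-4 at its EC80 concentration; % is set by controls: 0 for no effect and ±100 for the full control effect; the text of the record puts the active cut at -80%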
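Tet-induced TRPML1-DL cells loaded with Ca8 no-wash calcium dye were read kinetically on FDSS. Compound addition was followed by EC80 agonist 54-4 (4 uM final); inhibition was read over 110 s.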
gsp ag: agonists of gsp mutant (McCune-Albright syndrome); gsp mutant cells, cAMP HTRF, 30 min; control for the full effect not named in the record; Potency, µM (series often up to 76.9 µM), for the others: at the top dose activation (cAMP increase), actives largely listed as activators; 340,000 compounds, 0.13% hits; AID 624287; active = well fitted activation curve with a large enough effect; inconclusive = small, poorly fitted or top-dose-only effect, or another doubt; inactive = no such curve, though single readings can be large or run the other way; cell line not stated here;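 note: phosphodiesterase inhibitor Ro 20-1724 added with compounds to block cAMP breakdown; potency is the fitted concentration of half-maximal effect; nearly all actives have a fitted effect of over 60% in size; about a fifth of the inactives were tested at one dose only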
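Cells in DMEM/10% FBS with G418 were pretreated with compounds in DMSO plus […] (300 uM stock) for 30 min at 37C. cAMP was measured by HTRF (cAMP-d2 plus anti-cAMP antibody-K) after 30 min at room temperature.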
ClpP mod: qHTS Assay for Activators of ClpP. ATP-dependent Clp protease proteolytic subunit (Bacillus subtilis (strain 168)), P80244. AID 651965, 2013. 340,000 compounds, 1.9% hits. purified B. subtilis ClpP, FRET peptide cleavage, 20 min. Potency, µM (top dose mostly 57.5 µM), for inactives: top-dose activity change, negative = active; active = well fitted falling curve with a large enough effect; inconclusive = small, poorly fitted or top-dose-only effect; inactive = no such curve, though single readings can be large or run the other way; note: potency is the fitted concentration of half-maximal effect; the source files actives as falling curves though it sought activators and does not explain the sign; nearly all actives have a fitted effect of over 65% in size; many hits overshoot -100%
Target sequence (P80244 whole entry, looked up): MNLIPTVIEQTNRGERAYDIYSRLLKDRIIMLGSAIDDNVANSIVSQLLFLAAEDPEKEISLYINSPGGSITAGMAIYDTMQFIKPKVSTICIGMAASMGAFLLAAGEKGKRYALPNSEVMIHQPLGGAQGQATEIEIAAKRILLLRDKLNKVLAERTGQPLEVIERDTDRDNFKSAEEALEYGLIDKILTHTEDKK
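ClpP 10 microg/mL final, pH 8 Tris/KCl buffer with BSA, glycerol, Tween-20; compound pinned in; FRET-FV substrate; RT 20 min; Ex320/Em430; ΔFRET vs ADEP 5.8 microM, DMSO, no enzyme.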
Menin-MLL FL inh: menin-MLL binding inhibition, fluorescein peptide | Fluorescence polarization, fluorescein-MLL peptide displacement from menin | FP activity change, % at 61.4 µM | 290,000 tested, under 10 active | AID 1766; inconclusive = falling polarisation curve, or a change in total fluorescence; inactive = total fluorescence flat and polarisation flat or rising; no compound was filed as active; the % refers to the polarisation; negative = inhibition;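 note: % of control where 0% means no effect; inhibitors lower the polarisation; unlabelled MLL peptide was the positive control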
Starred values were filed as active, the others as inactive; u = inconclusive; x = not tested or not shown; & = joins results of further samples; [ ] = remark or other dose.

SMILES	TRPML1 ag	gsp antag	TRPML1 blocker	gsp ag	ClpP mod	Menin-MLL FL inh
Cc1ccc(Cc2c(C)nc3nc(SCC(=O)NC4CCC(C)CC4)nn3c2C)cc1 (configuration not stated)	1.1	x	35	x	0.9%	x
COc1ccc(S(=O)(=O)NCCS(=O)(=O)N2CCN(c3ccccc3)CC2)cc1OC	1.5	x	-10	x	-0.7%	x
COc1ccc(C2(C)NC(=O)N(CC(=O)Nc3ccc4c(c3)CCC4)C2=O)cc1OC (configuration not stated)	2.5	9%	-13	-7%	-0.1%	x
CCc1ccc(NC(=O)CN(c2ccc(Cl)cc2)S(=O)(=O)c2ccsc2C(=O)OC)cc1	2.2	x	16	x	-3.3%	x
Cc1cnn(Cc2ccccc2)c1N	0.4	5%	14	-5%	-1.7%	8.4
COc1cc(C(=O)N2CCc3c([nH]c4ccccc34)C2c2ccc(F)cc2)cc(OC)c1OC (configuration not stated)	0.4	x	0	x	-2.8%	x
CCOC(=O)N1CCC(N2C(=O)c3ccccc3C2Nc2ccc(S(=O)(=O)N3CCOCC3)cc2)CC1 (configuration not stated)	1.5	-11%	2	-5%	-1.1%	0.6
C[C@H](NC(=O)N1CCn2c1nc1ccccc12)C(=O)NCc1ccco1	-0.7	6%	28	-7%	x	x
CCCn1c(C(O)c2cc(OC)c(OC)c(OC)c2)nc2ccccc21 (configuration not stated)	-0.4	4%	12	2%	-5.0%	-5.2
CCC(C(=O)NCCc1cc(OC)ccc1OC)n1nc(C)c2c(C)n(-c3ccccc3)nc2c1=O (configuration not stated)	-0.7	x	-3	x	-1.1%	x
CCOC(=O)C1=C(N)Oc2cc(C)[nH]c(=O)c2C1c1ccncc1 (configuration not stated)	-0.7	3%	4	u	-1.9%	-4.9
O=c1[nH]c(=O)n(C2CC(O)C(CO)O2)cc1I (configuration not stated)	-0.6	0%	9	-2%	u	x
CNC(=O)[C@@H]1C[C@H]1[C@@H](NC(=O)CNC(=O)OCc1ccccc1)c1ccccc1	0.2	8%	8	3%	1.3%	-0.7
O=C1CC(N2CCN(c3ccccc3)CC2)C(=O)N1c1ccc2c(c1)OCCO2 (configuration not stated)	-0.5	2%	3	-1%	1.9%	2.7
CC1(c2ccc(Cl)cc2)NC(=O)N(CC(=O)NCCC2=CCCCC2)C1=O (configuration not stated)	1.5	-38%	-5	-5%	1.4%	x
CN(c1ccccc1)S(=O)(=O)c1cccc(C(=O)NCc2ccccc2CN2CCCC2)c1	-1.4	2%	32	-2%	-1.9%	x
Cc1ccc(S(=O)(=O)CCC(=O)Nc2ccc(Br)cc2)cc1	2.6	3%	-15	11%	-1.3%	-2.2
Cc1nn(C(=O)c2ccc3c(c2)OCO3)c(N)c1-c1ccccc1	1.1	u	-8	u	1.2%	2.2
COc1ccccc1NS(=O)(=O)c1ccc2ccccc2c1	x	6%	x	10%	1.4%	-1.4
CC(=O)c1nnn(-c2cccc([N+](=O)[O-])c2)c1C	-0.3	1%	-17	7%[15.4 µM]	x	-2.6
CC(C)CNC(=S)N1CCN(Cc2ccc3c(c2)OCO3)CC1	-0.2	-7%	-6	-43%[inhibitor]	x	3.7
Cc1cc(C)nc(Sc2ccc3nnnn3n2)n1	0.4	6%	0	6%	-0.2%	4.5
Cc1ccc(OCCNS(=O)(=O)c2ccc(N3CCCC3=O)cc2)cc1	2.2	1%[15.4 µM]	-8	1%	-3.0%	2.5
Cc1ccc(C(=O)NC(=S)NNS(=O)(=O)c2ccc(C)cc2)cc1	-0.3	-4%	26	-9%[15.4 µM]	0.8%	2.3
COc1ccc(C(=O)Nc2nc(-c3ccc(S(=O)(=O)N4CCOCC4)cc3)cs2)cc1	-0.3	u	1	-7%	-13%	10
NNC(=O)C(Cc1cnc[nH]1)NC(=O)OCc1ccccc1 (configuration not stated)	0.6	12%	-15	-2%	0.3%	-4.4
CCOC(=O)C(C)Sc1nnc(NC(=O)c2ccc3c(c2)OCO3)s1 (configuration not stated)	0.6	-22%	31	8%[15.4 µM]	-5.3%	-2.4
O=C(OCCN=C1NS(=O)(=O)c2ccccc21)c1cccs1	0.1	-3%	7	u	x	2.4
Nc1nnc(CSCc2cccc(Br)c2)s1	-0.1	5%	-1	11%	x	1.2
NC(=O)COc1ccc2oc(=O)cc(-c3cc4ccccc4o3)c2c1	-0.8	-14%	-10	u	-0.9%	-6.5
CC(=O)Nc1ccc(-c2csc(NC=C3C(=O)OC(C)(C)OC3=O)n2)cc1	1.1	6%	-14	-46%[inhibitor]	-1.0%	12
CCOC(=O)COc1ccccc1/C=N/O	0.7	-11%	18	14%	-2.8%	3.8
CCOC(=O)N1CCc2c(sc3c2c(=O)n(-c2ccc(CC)cc2)c(=O)n3Cc2cccc(OC)c2)C1	0.9	x	-12	x	-1.2%	x
CS/C(=N\S(=O)(=O)c1cccs1)Nc1ccc(Cl)cc1	-0.1	-14%	8	8%	-0.2%	1.6
COCCCN1C(=O)C(=O)/C(=C(/O)c2ccc3c(c2)OCCO3)C1c1ccc(C(=O)OC)cc1 (configuration not stated)	-0.5	9%	-10	u	32µM*	-1.3
Cc1ccc(NC(=O)CC(=O)c2ccccc2)cc1C	0.2	-3%	21	26%[15.4 µM]	x	-3.1
COc1cccc(NC(=O)N(C)C[C@H]2OCc3cnnn3CCCC(=O)N([C@H](C)CO)C[C@@H]2C)c1	0.2	x	-3	-64%[inhibitor]	0.7%	x
O=c1cc(N2CCOCC2)c2ccccc2o1	0.8	0%	4	-38%	-2.4%	-2.2
C#C[C@]1(O)CC[C@H]2[C@@H]3CCc4cc(O)ccc4[C@H]3CC[C@@]21C	-0.5	1%	69	x	1.2%	6.2&-2.7
COc1ccc(NC(=O)NNC(=O)COc2ccc([N+](=O)[O-])c(C)c2)cc1OC	-0.4	10%	10	-5%[15.4 µM]	-0.4%	x
COC(=O)C1C2CCCCC1C(=O)O2 (configuration not stated)	0.0	6%	4	-3%	-3.4%	x
CNC(=S)N(Cc1ccc(OC)cc1)Cc1cc2cccc(C)c2[nH]c1=O	0.8	-29%	6	-15%[15.4 µM]	x	-3.7
Cc1cc(C)c2nc(N3CCCC(C(=O)NC4CCCC4)C3)sc2c1 (configuration not stated)	-1.2	-5%	71	20%	-0.1%	2.0
O=C(CN1C(=O)CC(c2ccccc2)=Nc2ccccc21)NC1CCCCC1	2.2	7%	3	1%	-4.8%	-0.3
CCN(CC)C(=O)CSc1nc(O)cc(=O)n1C	0.4	5%	-7	-78%[inhibitor]	-0.8%	-1.6

Single records, from the list above. Order of screens: TRPML1 ag, gsp antag, TRPML1 blocker, gsp ag, ClpP mod, Menin-MLL FL inh
Profile of C#C[C@]1(O)CC[C@H]2[C@@H]3CCc4cc(O)ccc4[C@H]3CC[C@@]21C = -0.5, 1%, 69, x, 1.2%, 6.2&-2.7
Profile of CC(=O)c1nnn(-c2cccc([N+](=O)[O-])c2)c1C = -0.3, 1%, -17, 7%[15.4 µM], x, -2.6
Profile of Nc1nnc(CSCc2cccc(Br)c2)s1 = -0.1, 5%, -1, 11%, x, 1.2
Profile of Cc1ccc(C(=O)NC(=S)NNS(=O)(=O)c2ccc(C)cc2)cc1 = -0.3, -4%, 26, -9%[15.4 µM], 0.8%, 2.3

(continued)
SMILES	TRPML1 ag	gsp antag	TRPML1 blocker	gsp ag	ClpP mod	Menin-MLL FL inh
COc1ccc(OC)c(C(=O)NC(CC(N)=O)c2ccc(NCCOc3ccccc3)c([N+](=O)[O-])c2)c1 (configuration not stated)	-0.6	-10%	14	-40%	3.6%	-3.4
CCOc1ccc(NC(=O)N(CCN(C)C)C(C)c2ccncc2)cc1 (configuration not stated)	0.2	10%	-5	17%	-0.3%	2.3
Cc1ccccc1-c1nc2ccccc2c(=O)n1C1CCS(=O)(=O)C1 (configuration not stated)	0.4	1%	-16	1%	-3.2%	2.5
CCN(CC)CCNC(=O)c1ccc(Cn2c(SCc3ccccc3)nc3cccnc32)cc1	-0.5	x	3	x	4.4%	x
COc1cc(C(C2C(=O)CC(C)(C)CC2=O)C2C(=O)CC(C)(C)CC2=O)ccc1OC(C)=O	0.5	-4%	2	-12%[15.4 µM]	x	x
CCOc1ccccc1NC(=O)CN1C(=O)C2(SCC(=O)N2c2cccc(F)c2)c2ccccc21 (configuration not stated)	2.2	x	-2	x	0.3%	x
CC(=O)c1cccc(S(=O)(=O)NCCc2csc3nc(-c4ccc(F)cc4)nn23)c1	0.8	x	-7	x	-3.0%	x
CC(CC(=O)N(C)c1c(N)n(Cc2ccccc2)c(=O)[nH]c1=O)c1ccccc1 (configuration not stated)	-0.4	9%	-12	5%	-0.4%	x
O=C(CNC(=O)c1ccco1)NCC(=O)OCc1c(F)cccc1Cl	0.0	19%	6	-5%	1.5%	-3.7
COc1ccc(OC)c(NC(=O)COC(=O)Cc2ccc(Br)cc2)c1	0.6	x	-24	-17%[15.4 µM]	x	-0.9
Cc1ccccc1OCC(=O)NNC(=O)c1ccoc1C	0.9	15%	14	-42%	0.8%	x
CCn1c(COc2ccccc2C)nc2ccccc21	1.4	-12%	1	u	3.4%	0.8
COC(=O)c1cc2oc3ccccc3c2n1Cc1ccccn1	0.2	-15%	5	19%	u	2.1
O=C(CSc1nnc(-c2ccccc2F)n1C1CC1)Nc1ccc2[nH]c(=O)[nH]c2c1	-0.4	-7%	1	u	-2.2%	1.8
Clc1ccc(CN2CCCCCCC2)cc1	-0.7	9%	5	u	0.9%	-0.5
Oc1c(C=C2N=c3ccccc3=N2)sc(=S)n1C1CCCCC1	-0.5&-0.5	12%&16%	-11&6	-5%&11%	-1.1%&-0.7%	0.6&3.0
Cc1cccc(Nc2nc3c(s2)CCCC3)c1	-0.3	-7%	27	-21%	-0.5%	-2.7
COC(=O)C1(C)CCc2cc(OC)ccc2C1=O (configuration not stated)	-0.4	-9%	8	25%[15.4 µM]	-1.2%	2.2
O=C(CCCN=C1NS(=O)(=O)c2ccccc21)OCC(=O)c1ccc(F)cc1	9.3	0%	-12	39%	-0.8%	x
COc1ccc(N2CC(C(=O)Nc3ccc(S(=O)(=O)Nc4nccs4)cc3)CC2=O)c(OC)c1 (configuration not stated)	-0.8	10%	7	-13%	-0.3%	x
Cc1cccc(OCC(=O)N/N=C/c2sc(=O)n(Cc3cccc(C(=O)O)c3)c2Cl)c1	0.1	-14%	-9	-9%[15.4 µM]	x	16
C[C@H](CO)N1C[C@H](C)[C@@H](CN(C)S(=O)(=O)c2ccc(F)cc2)Oc2ccc(NC(=O)Cc3cn(C)c4ccccc34)cc2C1=O	0.5	-9%	-5	x	-5.1%	x

Screening data (PubChem BioAssay)
